HCMV NEC inh: inhibitors of HCMV UL50-UL53 interaction, biochemical, HTRF; HCMV UL50-UL53 nuclear egress complex (human cytomegalovirus); normalized percent inhibition; inhibition, % (no concentration beside the values); 190,000 compounds, 0.15% hits;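 active means both replicates at 50% or more, plus weaker picks with an unusually low signal ratio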;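 further: stock transfer was 100 nL into about 20 µL; 0% = negative control wells and 100% = wells with untagged competitor protein; inactives centre near -12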
GIV Gai3 FP: inhibitors of GIV peptide binding to Galpha-i3, primary screen, biochemical, fluorescence polarization, FITC-GIV GBA peptide, rat Galphai3; AID 1224905, 2016; 210,000 compounds, 0.42% hits; Guanine nucleotide-binding protein G(i) subunit alpha-3 (Rattus norvegicus), P08753; percent of control (FP), % (concentration not given with the values); 90 min; stronger effect = lower value; scaled: aluminum fluoride 0%, vehicle 100%;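 active means replicate mean at 85% of control or lower, very high polarization wells dropped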;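 further: wells of about 15 µL received 100 nL stock; the first replicate is given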
Target sequence (P08753 whole entry, looked up): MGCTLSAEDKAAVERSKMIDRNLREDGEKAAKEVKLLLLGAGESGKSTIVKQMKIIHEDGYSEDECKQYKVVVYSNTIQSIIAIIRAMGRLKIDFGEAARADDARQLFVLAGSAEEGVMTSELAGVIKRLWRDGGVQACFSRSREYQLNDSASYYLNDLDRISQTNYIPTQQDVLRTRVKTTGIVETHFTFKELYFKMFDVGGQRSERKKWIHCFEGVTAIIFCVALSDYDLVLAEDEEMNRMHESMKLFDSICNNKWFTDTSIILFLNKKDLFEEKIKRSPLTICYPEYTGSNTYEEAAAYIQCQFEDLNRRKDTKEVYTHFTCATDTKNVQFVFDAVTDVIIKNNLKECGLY
Sa growth 42C: S. aureus growth inhibition at 42 and 30 °C, primary screen, LtaS inhibitor project, RN4220, two temperatures; OD600, 20 h, 42 °C; stronger effect = lower value; relative growth, % (no concentration beside the values); 170,000 compounds, 0.53% hits;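 active means growth at 42 °C up to 50% and 20 or more points under that at 30 °C, or under 10% at both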;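 further: 300 nL library stock went into each well; scaled to the means of positive and negative controls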
Sa growth 42C second temp: second read-out of Sa growth 42C, no call of its own (marks repeat the call); relative growth, %; measured here: growth at 30 °C;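 optical density after 20 h as mean of two plates; 100% = untreated growth and lower means inhibition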
* hit, by the source's call; nt = not tested or not shown; & = joins results of further samples.

1) CCc1ccccc1N1C(=NC(=O)C(C)C)SC2CS(=O)(=O)CC21 (stereo not given)
2) CN(C)c1ccc(/C=C(/C#N)c2ccc(F)cc2)cc1
3) O=S(=O)(c1ccccc1)N1CCN(c2ccnc3cc(Cl)ccc23)CC1
4) COCCCN1C(=O)c2[nH]nc(-c3cc(C)ccc3O)c2C1c1ccc(OC)cc1 (stereo not given)
5) O=C(NCc1ccc(Cl)cc1)C1=CN2CCS(=O)(=O)N=C2C=C1
6) CN(C)c1ccc(Cl)nn1
7) CCCN(C(=O)c1coc(=O)c2ccccc12)c1ccccc1C
8) Cc1cc(C)cc(NC(=O)C(c2ccccc2)N2CCCC2)c1 (stereo not given)

compound no.	1	2	3	4	5	6	7	8
Sa growth 42C	94	123	123	nt	111	86	107	98
Sa growth 42C second temp	78	77	99	nt	79	105	91	89
GIV Gai3 FP	97	102	100	105	nt	103	104	nt
HCMV NEC inh	-12	-8	1	-21	-20	-22	-4	-15

9) O=P(O)(/C=C/c1ccccc1)/C=C/c1ccccc1
10) CC(=O)Nc1nonc1-c1nnc(SCC(=O)Nc2ccc(C)cc2)n1-c1ccccc1
11) Cc1nc(-c2c(C(=O)NN)noc2C)cs1
12) CN(C)c1ccc(C(CNC(=O)C2CCCCC2)N2CCc3ccccc3C2)cc1 (stereo not given)
13) O=c1[nH]c2nccnc2c(=O)n1Cc1ccc(F)cc1
14) Clc1ccc2oc(-c3ccccn3)nc2c1
15) CCOC(=O)c1nn(-c2ccccc2)c(=O)cc1NCCC(c1ccccc1)c1ccccc1
16) c1ccc(-c2noc(NCCN3CCCc4ccccc43)n2)cc1

compound no.	9	10	11	12	13	14	15	16
Sa growth 42C	109	115	98	nt	nt	139	nt	81
Sa growth 42C second temp	97	90	86	nt	nt	78	nt	57
GIV Gai3 FP	101	103	100	99	98	124	96	101
HCMV NEC inh	-7	-40	-17	-27	-82	nt	-28	-26

17) CC1CCCN(S(=O)(=O)Cc2ccccc2)C1 (stereo not given)
18) CC1Cc2ccccc2N1C(=O)CN(C)S(=O)(=O)c1ccc2c(c1)C(C)(C)C(=O)N2C (stereo not given)
19) COc1ccc(C2=NN(CC(=O)NCCc3ccc(OC)c(OC)c3)C(=O)CC2)cc1
20) Cc1ccc2nc(C(F)(F)F)cc(N3CCN(CCS(=O)(=O)c4ccc(Cl)cc4)CC3)c2c1
21) Cc1ccc(NC(=O)NCc2ccc3c(c2)CCN3C(=O)c2ccccc2)c(Cl)c1
22) CCCCCc1nnc(N)s1
23) Nc1nc(NC2CCCCNC2=O)n[nH]1 (stereo not given)
24) OCc1nc2ccccc2n1CC(O)COc1ccccc1 (stereo not given)

compound no.	17	18	19	20	21	22	23	24
Sa growth 42C	107	nt	106	82	93	84	104	108
Sa growth 42C second temp	94	nt	96	83	81	85	100	90
GIV Gai3 FP	109	103	105	98	98	104	107	94
HCMV NEC inh	-6	4	nt	3	nt	-25	11	-15

25) CC(C)CNC(=O)c1cc(-c2cccs2)on1
26) O=S(=O)(NC1=NCCCCC1)c1ccc(Cl)cc1
27) CCN1C(=O)c2cccc3c(S(=O)(=O)NCc4ccco4)ccc1c23
28) O=C(Nc1ccccc1C(=O)Nc1ccccc1C(=O)O)c1ccccc1
29) CCc1c(C)nc(-n2nc(C)cc2NC(=O)c2cccc(Br)c2)[nH]c1=O
30) O=C(CN1C(=O)S/C(=C\c2ccc(O)cc2)C1=O)N1CCOCC1
31) O=C(OCC(=O)C12CC3CC(CC(C3)C1)C2)c1ccccc1
32) O=c1[nH]c(CSc2ccccc2)nc2ccccc12

compound no.	25	26	27	28	29	30	31	32
Sa growth 42C	109	104	97	91	nt	111	94	92
Sa growth 42C second temp	86	89	73	88	nt	81	91	86
GIV Gai3 FP	103	nt	102	101	95	104	nt	100
HCMV NEC inh	nt	-25	-53	-7	-14	nt	5	-25

A second format for 13 compounds above:
Values run as follows: Sa growth 42C | Sa growth 42C second temp | GIV Gai3 FP | HCMV NEC inh
1: CCc1ccccc1N1C(=NC(=O)C(C)C)SC2CS(=O)(=O)CC21 (stereo not given)
 : 94 | 78 | 97 | -12
2: CN(C)c1ccc(/C=C(/C#N)c2ccc(F)cc2)cc1
 : 123 | 77 | 102 | -8
3: O=S(=O)(c1ccccc1)N1CCN(c2ccnc3cc(Cl)ccc23)CC1
 : 123 | 99 | 100 | 1
4: COCCCN1C(=O)c2[nH]nc(-c3cc(C)ccc3O)c2C1c1ccc(OC)cc1 (stereo not given)
 : nt | nt | 105 | -21
5: O=C(NCc1ccc(Cl)cc1)C1=CN2CCS(=O)(=O)N=C2C=C1
 : 111 | 79 | nt | -20
6: CN(C)c1ccc(Cl)nn1
 : 86 | 105 | 103 | -22
7: CCCN(C(=O)c1coc(=O)c2ccccc12)c1ccccc1C
 : 107 | 91 | 104 | -4
8: Cc1cc(C)cc(NC(=O)C(c2ccccc2)N2CCCC2)c1 (stereo not given)
 : 98 | 89 | nt | -15
9: O=P(O)(/C=C/c1ccccc1)/C=C/c1ccccc1
 : 109 | 97 | 101 | -7
10: CC(=O)Nc1nonc1-c1nnc(SCC(=O)Nc2ccc(C)cc2)n1-c1ccccc1
 : 115 | 90 | 103 | -40
11: Cc1nc(-c2c(C(=O)NN)noc2C)cs1
 : 98 | 86 | 100 | -17
12: CN(C)c1ccc(C(CNC(=O)C2CCCCC2)N2CCc3ccccc3C2)cc1 (stereo not given)
 : nt | nt | 99 | -27
13: O=c1[nH]c2nccnc2c(=O)n1Cc1ccc(F)cc1
 : nt | nt | 98 | -82

Further records.
33) COC(=O)c1ccccc1NC(=O)Cn1c(=O)n(-c2ccc(Cl)cc2)c(=O)c2c(C)c(C)sc21
34) O=C1NC(=Nc2ccccc2)S/C1=C/c1ccccc1Br
35) CCC(=O)Nc1ccc(Cl)c(C(F)(F)F)c1
36) CCNc1nc(NCC)nc(NNC(=S)Nc2ccc(C)cc2)n1
37) Cc1cc(C)n2c(SCC(=O)Nc3ccccc3)nnc2n1
38) COc1ccc(-c2noc(=O)n2Cc2cccc(C)c2)cc1
39) Clc1ccccc1-c1ccc(CNc2ncn[nH]2)o1
40) COc1ccc(CNC(=O)Cc2coc3cc(C)cc(C)c23)cc1

compound no.	33	34	35	36	37	38	39	40
Sa growth 42C	102	nt	87	109	97	100	nt	121
Sa growth 42C second temp	91	nt	81	98	108	73	nt	98
GIV Gai3 FP	102	103	102	nt	104	99	104	106
HCMV NEC inh	-10	-8	-10	-6	-8	nt	-10	nt

41) Cc1cc(N2C(=O)CSC2c2ccc([N+](=O)[O-])cc2)ccc1Br (stereo not given)
42) O=C1/C(=C/c2cccnc2)CCC/C1=C\c1cccnc1
43) CC(C)(C)c1ccc(C(=O)N2CCC(C(=O)O)CC2)cc1
44) O=c1c2sc3ncccc3c2nc(SCc2cccc(Br)c2)n1CC1CCCO1 (stereo not given)
45) Cc1nc(-c2ccc(C)c(N3CCN(C(=O)Nc4cccc(Cl)c4C)CC3)c2)no1
46) COC(=O)C1=C(C)NC(=O)NC1c1ccccc1 (stereo not given)
47) COc1ccc(C2CCCN2C(=O)Nc2ccccc2)cc1OC (stereo not given)
48) Cc1ccc(NC(=O)CC(CC(=O)O)c2ccccc2)nc1 (stereo not given)

compound no.	41	42	43	44	45	46	47	48
Sa growth 42C	nt	74	102	nt	95	99	96	104
Sa growth 42C second temp	nt	53	77	nt	85	82	92	86
GIV Gai3 FP	100	49*	103	100	104	104	103	95
HCMV NEC inh	-76	19	-11	11	nt	nt	nt	-11

49) CCOC(=O)c1c(C)oc2ncnc(Nc3ccc(OC)c(OC)c3)c12
50) Cc1ccc(C(=O)NCCc2csc3nc(-c4ccccc4C)nn23)cc1
51) COc1ccc2c(c1)[nH]c1c(=O)n(CCCN3CCN(C4CCCCC4)CC3)cnc12
52) COc1cc(OC)c(NC(=O)C2CCCN(C(=O)c3cc(-c4cccnc4)n[nH]3)C2)cc1Cl (stereo not given)
53) CCc1ccccc1NC(=O)C(C)Oc1ccccc1 (stereo not given)
54) CCc1cccc(NC(=O)c2cc3c(=O)oc4ccc(C)cc4c3s2)c1
55) O=c1c2ccccc2nc2n1CCN2
56) COc1ccc(N(C(=O)c2cccc(C)c2)S(=O)(=O)c2ccc3c(c2)n(C)c(=O)n3C)cc1

compound no.	49	50	51	52	53	54	55	56
Sa growth 42C	93	nt	97	nt	96	95	112	86
Sa growth 42C second temp	87	nt	88	nt	84	107	106	78
GIV Gai3 FP	98	100	107	101	nt	113	108	102&97
HCMV NEC inh	nt	-2	-16	-16	-3	-6	8	-23&-14

57) Cc1ccccc1NC(=O)CN1C(=O)CC(c2ccccc2)=Nc2ccccc21
58) Brc1cc(/C=N/n2cnnc2)oc1Br
59) CN1CCC(c2ccc(Cl)s2)=N1
60) CCCCNC(=O)C1CCN(c2cc(C)nc3c(-c4ccc(OC)c(OC)c4)c(C)nn23)CC1
61) O=C(NCc1noc(C2CCCC2)n1)c1ccc(F)cc1
62) Cc1ccccc1NC(=O)CSc1nc2c(oc3ccccc32)c(=O)n1Cc1ccco1
63) COC(=O)c1c(C)[nH]c(C(=O)C(C)N2CCN(c3ccc(O)cc3)CC2)c1C (stereo not given)
64) NC(=O)C1CCN(Cn2cnc3ccccc32)CC1

compound no.	57	58	59	60	61	62	63	64
Sa growth 42C	nt	118	92	nt	nt	97	97	70
Sa growth 42C second temp	nt	89	93	nt	nt	91	85	76
GIV Gai3 FP	100	nt	116	102	106	101	nt	100
HCMV NEC inh	5	-106	-54	-17	-7	-2	-12	-80

65) CCOC(=O)n1c(=O)oc2cc(Cl)ccc21
66) CN(C)/C=C/c1c(C#N)c(=O)ncn1Cc1ccccc1
67) Clc1cncc(Oc2ccc(-n3cccc3)cn2)c1
68) CCOC(=O)CSc1nc2ccc(NC(=O)c3ccc(Cl)cc3)cc2s1
69) CC(=O)Nc1ccc(CC(=O)N2CCc3cc(-c4noc(C)n4)ccc32)cc1
70) CCC1CCCCN1C(=O)Cn1c(=O)n(Cc2ccc(F)cc2)c(=O)c2c1c(C)nn2CC (stereo not given)
71) CC(=O)NC(C)C(=O)OCc1ccc(Cl)cc1Cl (stereo not given)
72) O=C(c1ccc2c(c1)OCO2)N1CCN(c2ccc(-c3noc(C4CC4)n3)cc2)CC1

compound no.	65	66	67	68	69	70	71	72
Sa growth 42C	112	111	104	110	nt	nt	104	nt
Sa growth 42C second temp	91	101	95	87	nt	nt	87	nt
GIV Gai3 FP	98	99	107	106	107	102	nt	101
HCMV NEC inh	nt	-62	-10	-36	-19	-3	-6	-32

73) CCOc1ccc(N2C(=O)CN(Cc3ccccc3Cl)[C@H]3CS(=O)(=O)C[C@H]32)cc1
74) O=C(CSCc1ccccc1Cl)N1CCN(c2ccc(F)cc2)CC1
75) CC(C)(C)c1ccc(C(=O)NC(=S)NCc2ccco2)cc1
76) Cc1c(NC(=O)c2nn3c(c2Cl)NC(c2ccc(Cl)cc2)CC3C(F)(F)F)c(=O)n(-c2ccccc2)n1C (stereo not given)
77) CCC(C)NC(=O)c1nnc(-c2oc3c(C)cccc3c2C)o1 (stereo not given)
78) O=C(COc1ccc(-c2nnco2)cc1)N(c1ccccc1)C1CCCCC1
79) CC(C)CCOc1ccc(C(=O)NCC2OCCc3ccccc32)cc1 (stereo not given)
80) COc1cccc(N2CCN(C(=O)CCCn3nc(C)c4sc5ccccc5c4c3=O)CC2)c1

compound no.	73	74	75	76	77	78	79	80
Sa growth 42C	nt	85	99	nt	nt	106	99	nt
Sa growth 42C second temp	nt	79	92	nt	nt	100	93	nt
GIV Gai3 FP	112	101	101	93	106	nt	105	99
HCMV NEC inh	-31	nt	-15	-16	-24	-6	-20	-19

81) O=C(N/N=C/c1ccco1)C1CC1(c1ccccc1)c1ccccc1 (stereo not given)
82) O=C(O)COc1ccc2occ(C(=O)c3cccs3)c2c1
83) COc1cccc(NC(=O)N2CCc3cc(-c4ccc(C(=O)N5CCOCC5)cc4)ccc32)c1
84) CN(Cc1ccccc1)C(=O)C1CC(c2ccc(F)cc2)=NO1 (stereo not given)
85) CCOC(=O)c1ccc(-n2c(C)cc(C=C3C(=O)NC(=S)NC3=O)c2C)cc1
86) CCn1c(O)c(C=Nc2cccc(Cl)c2)c(=O)[nH]c1=S
87) Cc1cc(=O)[nH]c(SCC(=O)N2c3ccccc3CCc3ccccc32)n1
88) CCOc1ccccc1NC(=O)Nc1nnc(N2CCCC(C)C2)s1 (stereo not given)

compound no.	81	82	83	84	85	86	87	88
Sa growth 42C	105	116	nt	92	101	113	112	70
Sa growth 42C second temp	102	85	nt	86	84	97	95	92
GIV Gai3 FP	102	96	103	99	78*	109	nt	108
HCMV NEC inh	-7	-33	-24	2	nt	-2	3	-2

Compound activity deposited in PubChem by ICCB-Longwood Screening Facility, Harvard Medical School.
